Ba CapD inh: blocks the Bacillus anthracis CapD enzyme. purified CapD enzyme, fluorescence intensity read-out; hits give low values; some hits fall short of the stated cut. z-score (concentration not given with the values). actives 0.23% (n = 140,000). AID 492967;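 active = z-score under -4 in either of two replicates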;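 also: stock transfer was 100 nL into about 40 µL; score is relative to mean and spread of the plate; one replicate is shown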
AID504770: growth inhibitors of E. coli YBA685 in a screen for V. cholerae RctB (chromosome II replication) inhibitors. E. coli YBA685 rctB-dependent plasmid, OD600 growth, 3 h; hits give low values. z-score (concentration not given with the values). actives 0.27% (n = 130,000). AID 504770;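 active = z-score under -2 on both plates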;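 also: wells of about 30 µL received 100 nL stock; score is relative to mean and SD of the test wells; the first replicate is given; strong numbers were not always called active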
Numbers without * were called inactive.

How did CCOC(=O)C1=C(C)NC2=C(C(=O)C(C(=O)OCC)C(c3ccccc3OC)C2)C1c1cc(C)sc1C (centres undefined) do in these assays?
Ba CapD inh: 3.9

Results for O=C(Nc1sc2c(c1CN1CCOCC1)CCCC2)c1ccccc1 ?
Ba CapD inh: 0.35; AID504770: -0.25

Results for Cc1noc(C)c1C(=O)Oc1ccc(Cl)cc1 ?
Ba CapD inh: 0.16; AID504770: -0.2

Results for Cc1cccc(Cl)c1/C=N/NC(N)=S ?
Ba CapD inh: -0.48

What do the screens show for `Cc1[nH][nH]c(=O)c1CCCOc1ccccc1`?
Ba CapD inh: 0.24; AID504770: 0.3

What do the screens show for `COCCN1C(=O)c2ccccc2C(C(=O)NCCN(C)C)C1c1ccc(F)cc1` (centres undefined)?
Ba CapD inh: 0.16; AID504770: -0.05

What do the screens show for `O=C(Nc1ccc(Cl)cc1)N1N=C2c3ccccc3CCC2C1c1cccs1` (centres undefined)?
Ba CapD inh: 1.6; AID504770: 1.2

What do the screens show for `O=C(Nc1ccc(-c2nnc(-c3ccco3)o2)cc1)C(c1ccccc1)c1ccccc1`?
Ba CapD inh: 89; AID504770: -0.4

What do the screens show for `Cc1ccc2[nH]c3c(c2c1)CCC1C3=NNC1c1ccco1` (centres undefined)?
Ba CapD inh: -4.1; AID504770: 0.05

Results for CCN(CC)c1cc(Cl)nc(N)n1 ?
Ba CapD inh: 0.41; AID504770: 0.25

Results for Cc1cc(C)c(C)c(OCC(O)CNC(C)C)c1 (centres undefined) ?
Ba CapD inh: -0.17; AID504770: -0.15

What do the screens show for `CNC(=O)c1ccc(NC(=O)C2=CSCCO2)cc1`?
Ba CapD inh: -1.4; AID504770: 1.6

What do the screens show for `Cc1c(Cc2ccccc2)c(=O)oc2cc(OC3CCCCC3=O)ccc12` (centres undefined)?
Ba CapD inh: -0.73; AID504770: 1.6

What do the screens show for `CCC(=O)Nc1cccc(NC(=O)c2cc(OC)cc(OC)c2)c1`?
Ba CapD inh: -0.095; AID504770: 1

What do the screens show for `O=C(C[C@H]1NC(=O)[C@@H]2CCCN2C1=O)OCc1ccccc1`?
AID504770: -0.15

Results for Cc1ccnc(NS(=O)(=O)c2ccccc2)c1 ?
Ba CapD inh: 15; AID504770: -0.45

How did O=C(CC1CCCC1)NCCc1cn2ccccc2n1 do in these assays?
AID504770: -1.1

Results for COc1nc2nonc2nc1OC ?
AID504770: -0.75

Results for Fc1cccc2c1NC(c1ccccc1)C1CC=CC21 (centres undefined) ?
Ba CapD inh: 0.11; AID504770: -1.3

Results for O=C(NCC(F)(F)F)Nc1ccccc1 ?
Ba CapD inh: -0.63; AID504770: -0.05

How did CCN(CC)CC(=O)Nc1ccc(C)cc1Br do in these assays?
Ba CapD inh: 0.34; AID504770: -0.55

Results for O=C1CCC(C(=O)OCN2C(=O)c3ccccc3C2=O)=NN1 ?
AID504770: 0.35

What do the screens show for `CCN(CC)C(=O)C1c2ccccc2C(=O)N2CCc3ccccc3C12` (centres undefined)?
Ba CapD inh: 0.53; AID504770: 0.55

What do the screens show for `CC1(C(=O)NCC(=O)c2cccs2)Cc2ccccc2C(=O)O1` (centres undefined)?
Ba CapD inh: 2.8; AID504770: -0.6

How did COCCCNC(=O)c1cc(C(=O)c2cccc(C(F)(F)F)c2)c[nH]1 do in these assays?
Ba CapD inh: -0.33

How did COc1ccc(C2C=C(c3ccccc3)NC(=O)C2C#N)cc1 (centres undefined) do in these assays?
Ba CapD inh: 46; AID504770: 0.45

Results for COc1cc(C(=O)Nc2c3c(nn2-c2ccc(Cl)cc2)CS(=O)(=O)C3)cc(OC)c1OC ?
Ba CapD inh: -0.15

What do the screens show for `Cn1c(=O)cc(N2CCCCC2)[nH]c1=O`?
AID504770: -0.65

How did Cc1ccc(C2C(C#N)=C(N)N(c3cccnc3)C3=C2C(=O)CCC3)s1 (centres undefined) do in these assays?
AID504770: -0.85

Results for CN(C)c1nc(C(C)(C)C)cc2c1C(=O)NC2=O ?
Ba CapD inh: 0.28; AID504770: -0.25

How did CC(CCC(=O)NC1CCCCC1)C(=O)O (centres undefined) do in these assays?
Ba CapD inh: 0.3; AID504770: -1.1

How did CC(=O)Nc1cc(C(=O)NCCN2C(C)CCCC2C)ccc1Sc1ccc(C)cc1 (centres undefined) do in these assays?
Ba CapD inh: -0.065; AID504770: 1

What do the screens show for `O=C1OC(CC(=O)N2CCN(c3ccc(F)cc3)CC2)c2ccccc21` (centres undefined)?
AID504770: 1.2

How did CCOC(=O)c1c(C)n(-c2ccccc2)c2c1cc(OC(=O)c1cccc(OC)c1)c1ccccc12 do in these assays?
Ba CapD inh: 0.39

Results for Cc1ccc(/C(C#N)=C/c2c(F)cccc2Cl)cc1 ?
Ba CapD inh: 0.99; AID504770: 0.15

Results for O=C(O)CC(CC(=O)N1CCOCC1)c1ccccc1 (centres undefined) ?
Ba CapD inh: 0.71; AID504770: 0.2

What do the screens show for `COc1ccc(CCn2cnn3c(=O)c4ccccc4nc3c2=O)cc1OC`?
Ba CapD inh: 10; AID504770: -0.95

What do the screens show for `Cc1ccc(F)cc1S(=O)(=O)NC1CCN(Cc2ccnc3ccccc23)C1` (centres undefined)?
Ba CapD inh: 1.7

What do the screens show for `O=C(COC(=O)CSc1ccc(Cl)cc1)Nc1ccc2[nH]c(=O)[nH]c2c1`?
AID504770: 2.9

What do the screens show for `O=C1CCC(C(=O)OCc2nc3ccccc3s2)N1` (centres undefined)?
AID504770: -0.6

Results for CCC(CC)(C(=O)O)C(=O)Nc1ccc(SC(F)F)cc1 ?
AID504770: 0.5

What do the screens show for `Cc1noc(-c2ccccc2)c1NC(=O)N1CCOCC1`?
Ba CapD inh: 0.03; AID504770: -0.15

What do the screens show for `CN1CCC=C(Cc2n[nH]c(=O)c3ccccc23)C1`?
Ba CapD inh: 0.19; AID504770: -0.2

Results for Cc1ccc(C)c(N(C)S(=O)(=O)c2ccc3[nH]cc(C(=O)NCCCN4CCOCC4)c(=O)c3c2)c1 ?
Ba CapD inh: 7.7

How did COc1cc(/C=C2\SC(=Nc3ccccc3)N(c3ccccc3)C2=O)cc(OC)c1O do in these assays?
Ba CapD inh: -0.5; AID504770: -0.75

How did COCCOC(=O)C1=C(C)NC2=C(C(=O)CC(c3ccc(Cl)cc3)C2)C1c1ccc([N+](=O)[O-])cc1 (centres undefined) do in these assays?
Ba CapD inh: -0.49

What do the screens show for `O=C(N/N=C/c1cc(F)ccc1F)c1ccc([N+](=O)[O-])cc1Cl`?
Ba CapD inh: 0.07

What do the screens show for `C/C(N)=C(/C#N)C(=O)CSc1nnc(COc2ccccc2Cl)o1`?
AID504770: 1.4

What do the screens show for `Cc1ccc(Nc2nc(NCc3ccco3)nc(N3CCOCC3)n2)c(Br)c1`?
Ba CapD inh: -0.4

How did Nc1ccc(Br)cn1 do in these assays?
Ba CapD inh: 0.16

What do the screens show for `Cc1ccc(OCc2ccc(Cl)c(Cl)c2)c([N+](=O)[O-])n1`?
Ba CapD inh: -0.08

How did Cc1ccc2c(COC(=O)c3ccc(S(=O)(=O)NCc4ccco4)cc3)cc(=O)oc2c1 do in these assays?
AID504770: -2

What do the screens show for `Cc1ccc(-c2nc(-c3ccc(NC(=O)c4cccs4)cc3)no2)cc1[N+](=O)[O-]`?
Ba CapD inh: -0.3

How did COc1ccc(-c2nnc(C3CCN(S(=O)(=O)c4ccc5nc(-c6ccccc6)[nH]c5c4)CC3)o2)cc1 do in these assays?
Ba CapD inh: -0.8; AID504770: 0.25

What do the screens show for `N#CC(N)c1ccc(F)cc1` (centres undefined)?
AID504770: 0.25

Results for CC1=C(C#N)C(=O)NC(C)(C)C1 ?
AID504770: 0.05

Results for Cc1nnsc1C(=O)Nc1ccc2c(c1)C(=O)OC2 ?
Ba CapD inh: 0.66; AID504770: -1.1

How did O=C(NC(Cc1c[nH]c2ccccc12)C(=O)OCc1ccccc1)OCCc1c(F)cccc1Cl (centres undefined) do in these assays?
Ba CapD inh: -0.29

How did CCOC(=O)N1C/C(=C/c2ccsc2)C(=O)/C(=C\c2ccsc2)C1 do in these assays?
AID504770: 0.85

How did Cc1ccc(C(=O)/C=c2\[nH]c(=O)/c(=C/c3cccnc3)s2)cc1 do in these assays?
Ba CapD inh: 0.25; AID504770: 0.5

No new results follow: entries from further up.
What do the screens show for `Cc1ccc(OCc2ccc(Cl)c(Cl)c2)c([N+](=O)[O-])n1`?
Ba CapD inh: -0.08

How did Cc1ccc2c(COC(=O)c3ccc(S(=O)(=O)NCc4ccco4)cc3)cc(=O)oc2c1 do in these assays?
AID504770: -2

What do the screens show for `Cc1ccc(-c2nc(-c3ccc(NC(=O)c4cccs4)cc3)no2)cc1[N+](=O)[O-]`?
Ba CapD inh: -0.3

How did COc1ccc(-c2nnc(C3CCN(S(=O)(=O)c4ccc5nc(-c6ccccc6)[nH]c5c4)CC3)o2)cc1 do in these assays?
Ba CapD inh: -0.8; AID504770: 0.25

What do the screens show for `N#CC(N)c1ccc(F)cc1` (centres undefined)?
AID504770: 0.25

Results for CC1=C(C#N)C(=O)NC(C)(C)C1 ?
AID504770: 0.05

The main list resumes with the 2 entries that preceded the break.
How did CCOC(=O)N1C/C(=C/c2ccsc2)C(=O)/C(=C\c2ccsc2)C1 do in these assays?
AID504770: 0.85

How did Cc1ccc(C(=O)/C=c2\[nH]c(=O)/c(=C/c3cccnc3)s2)cc1 do in these assays?
Ba CapD inh: 0.25; AID504770: 0.5

What do the screens show for `O=[N+]([O-])c1cc(Cl)c(N2CCOCC2)cc1N1CCOCC1`?
Ba CapD inh: 0.28

What do the screens show for `COC(CNC(=O)c1ccc(/C=C2/Sc3ccccc3N(Cc3cccc(C)c3)C2=O)cc1)OC`?
Ba CapD inh: 0.07; AID504770: 0

What do the screens show for `COc1cccc(C(N)CC(=O)O)c1` (centres undefined)?
Ba CapD inh: -0.69; AID504770: 2.2

How did COCCNc1nc(SCC(=O)n2nc(N)cc2C)nc2ccccc12 do in these assays?
Ba CapD inh: 4.6

What do the screens show for `O=C(O)c1cnn(-c2ccc([N+](=O)[O-])cc2)c1C(F)(F)F`?
Ba CapD inh: -0.42

Results for Cc1cc(C)n(C(=O)C2CC=CCC2C(=O)O)n1 (centres undefined) ?
Ba CapD inh: 0.045; AID504770: -0.25

How did COc1ccc(C(F)(F)F)cc1N do in these assays?
AID504770: -0.45

How did CC(=O)Nc1ccc(NC(=O)CC2C(=O)Nc3ccccc3N2C(C)=O)cc1 (centres undefined) do in these assays?
AID504770: 0.25

What do the screens show for `Cc1ccc(O)c(C(=O)c2cnn(C(=O)Cc3csc(C)n3)c2)c1`?
AID504770: 1.4

What do the screens show for `O=C(Nc1ccc(Cl)cc1Cl)c1cccnc1`?
Ba CapD inh: -0.23

How did CCCCn1nc(C)c(C(=O)N2CCN(Cc3ccc(OC)c(F)c3)CC2)c1Cl do in these assays?
AID504770: 0

How did CSc1ccc(CCNC(=O)C2CCCN(c3nnc(-n4cccc4)s3)C2)cc1 (centres undefined) do in these assays?
Ba CapD inh: -0.015; AID504770: 0.2

Results for O=C(/C=C\Nc1cccc(N/C=C\C(=O)c2ccccc2)c1)c1ccccc1 ?
Ba CapD inh: -0.01; AID504770: 2.8

Results for CN(CCNC(=O)c1cc2c(=O)n(C)c3ccccc3c2s1)Cc1ccccc1 ?
Ba CapD inh: 0.99; AID504770: 0.05

Results for C=CCn1c(=S)sc2c(Sc3nnc(-c4ccco4)o3)ncnc21 ?
Ba CapD inh: -1.7; AID504770: -0.05

How did COc1ccc(CCn2c(SCC#N)nc3ccc(N4CCOCC4)cc3c2=O)cc1OC do in these assays?
Ba CapD inh: 0.065; AID504770: 2.5

How did Nn1c(SCC(=O)N2CCCc3ccccc32)nnc1-c1ccccc1 do in these assays?
Ba CapD inh: 0.32; AID504770: -0.8

What do the screens show for `CCOC(=O)N1CCC(Nc2ncnc3c2c(-c2ccccc2)cn3-c2ccc(OC)cc2)CC1`?
Ba CapD inh: 0.15

Results for O=C1/C(=C/Nc2cccnc2)S(=O)(=O)N(Cc2ccccc2)c2ccsc21 ?
Ba CapD inh: 3; AID504770: -0.75

What do the screens show for `COc1ccc(-c2n[nH]c(C(F)(F)F)c2-c2cnn(-c3ccccc3)c2)c(O)c1C`?
Ba CapD inh: 0.11; AID504770: 0.2

Results for O=C(O)c1ccc(CSc2nnc(COc3ccc(Cl)cc3Cl)o2)cc1 ?
Ba CapD inh: 0.53; AID504770: 0.35

What do the screens show for `Cc1noc(C)c1CN1CCN(CC(=O)Nc2ccc(Cl)c(C(F)(F)F)c2)CC1`?
AID504770: 0

Results for CN(C)CCN1C(=O)C(=O)/C(=C(/O)c2ccc(F)cc2)C1c1ccc(F)cc1 (centres undefined) ?
Ba CapD inh: -0.46

What do the screens show for `CSC(=CC(=O)c1ccc(Cl)cc1)SC`?
Ba CapD inh: -0.99; AID504770: 0.05

How did NC(=O)NC(=O)COc1ncnc2ccccc12 do in these assays?
AID504770: 0.35

How did CCCSc1nc2cc(C)c(C)cc2[nH]1 do in these assays?
Ba CapD inh: -0.2; AID504770: -0.2

How did O=C(O)CSc1nc2cc(C(F)(F)F)ccc2n1Cc1ccccc1 do in these assays?
Ba CapD inh: 0.43; AID504770: -0.45

Results for CC1CN(C(=O)NCc2ccccc2)c2ccccc2S1 (centres undefined) ?
Ba CapD inh: 0.1; AID504770: -0.65

How did O=C(Nc1ccccc1)c1ccc(F)cc1 do in these assays?
AID504770: -0.85

How did COC(=O)c1cc2oc3ccccc3c2n1CC(=O)N(C)c1ccccc1 do in these assays?
Ba CapD inh: -1.1; AID504770: 0.75

What do the screens show for `CCNc1nc2ccc(Cl)cc2nc1NCC`?
Ba CapD inh: 82; AID504770: -0.85

Results for COc1ccc(-c2nnc3c4cccc5cccc(c54)n23)cc1 ?
Ba CapD inh: 70

High-throughput results: PubChem, ICCB-Longwood Screening Facility, Harvard Medical School

Some of the compounds tested, so the mix of outcomes need not match the whole.
